HPGD block = qHTS Assay for Inhibitors of HPGD (15-Hydroxyprostaglandin Dehydrogenase); 15-hydroxyprostaglandin dehydrogenase [NAD(+)] (Homo sapiens), P15428; purified HPGD, NADH fluorescence kinetic, PGE2 substrate; Potency, µM, without a hit: at the top dose activity change, negative = inhibition, most hits filed as inhibitors; hit rate 4.3% among 150,000; active = well fitted inhibition curve with a large enough effect (not every such curve was filed as active); inconclusive = small, poorly fitted or top-dose-only effect, or another doubt; inactive = no such curve, though single readings can be large or run the other way;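 note: top concentration of the series not given in the record; plate controls included wells without enzyme; inactives centre near -10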
Target sequence (P15428 whole entry, looked up): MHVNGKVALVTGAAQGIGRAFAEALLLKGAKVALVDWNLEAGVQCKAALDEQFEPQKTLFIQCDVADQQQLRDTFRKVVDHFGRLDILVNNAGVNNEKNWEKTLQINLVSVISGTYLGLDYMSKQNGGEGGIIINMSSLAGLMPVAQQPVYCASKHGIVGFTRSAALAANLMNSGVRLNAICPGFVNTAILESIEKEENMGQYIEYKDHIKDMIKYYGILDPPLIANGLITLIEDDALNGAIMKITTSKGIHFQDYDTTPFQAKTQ
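NADH formation kinetics: reaction with 30 uM PGE2 and 1 mM NAD+ (final), 20 nM enzyme, Tris-HCl pH 8 with Tween 20, after 15 min compound preincubation at room temperature. Fluorescence change, last versus first of five reads.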
Active calls of the source: *; & = joins results of further samples; ! = not confirmed by another sample. % is set by controls: 0 for no effect and ±100 for the full control effect; potency is the fitted concentration of half-maximal effect. An excerpt; the hit share may differ from the screen's.

Results for COC(=O)C1=C(C)NC(=S)N(C(C)=O)C1c1ccc(OC)c(OC)c1 (stereo not given) ?
HPGD block: -17.3%

Results for COc1ccc2oc(C)c(C(=O)NN)c2c1 ?
HPGD block: -3.1%

Results for C=CCSc1nc2sc(C)c(C)c2c(=O)n1CC=C ?
HPGD block: -14.5%

What do the screens show for `CN(c1cccc(NC(=O)COc2ccccc2)c1)S(C)(=O)=O`?
HPGD block: -16.8%

How did O=C(Cc1ccc(-n2c(=S)[nH]c3ccccc3c2=O)cc1)N1CCC(N2CCCCC2)CC1 do in these assays?
HPGD block: -13.1%

What do the screens show for `COCCCNC(=O)c1cccn2c(=O)c3cc4ccccc4cc3nc12`?
HPGD block: -20.1%

What do the screens show for `CC[C@]1(C)CC(=O)NC1=O`?
HPGD block: -0.7%

What do the screens show for `CC(C)CN(C(=O)COC(=O)c1cc2c(s1)CCC2)C1CCS(=O)(=O)C1` (stereo not given)?
HPGD block: -15.2%

Results for COC(=O)c1ccccc1S(=O)(=O)N1CCc2nc(-c3ccccc3)c3c(c2C1)CO[C@@H](C)C3 ?
HPGD block: -10.4%

How did COC(=O)CN1C(=O)C2(OCCCO2)c2cc(Br)ccc21 do in these assays?
HPGD block: -6.8%

What do the screens show for `Cc1ccc2nc(CSc3nnc(Nc4ccccc4F)s3)cc(=O)n2c1`?
HPGD block: inconclusive

How did COc1ccc(S(=O)(=O)n2ccc(-c3ccc(OCCN(C)c4ccccn4)cc3)n2)cc1 do in these assays?
HPGD block: -17.7%

What do the screens show for `CCCCCOc1ccc(NC(=O)CSc2cccc3cccnc23)cc1`?
HPGD block: inconclusive

What do the screens show for `Cc1ccc2c(CC(=O)NC3CCCc4ccccc43)coc2c1` (stereo not given)?
HPGD block: -12.0%

Results for c1ccc(Nc2ccccc2Nc2ccccn2)nc1 ?
HPGD block: -15.9%

In the list so far, these contain an aryl methoxy group.
Results for COC(=O)C1=C(C)NC(=S)N(C(C)=O)C1c1ccc(OC)c(OC)c1 (stereo not given) ?
HPGD block: -17.3%

Results for COc1ccc2oc(C)c(C(=O)NN)c2c1 ?
HPGD block: -3.1%

How did COc1ccc(S(=O)(=O)n2ccc(-c3ccc(OCCN(C)c4ccccn4)cc3)n2)cc1 do in these assays?
HPGD block: -17.7%

Further structures follow.
How did NC(=O)c1ccsc1NC(=O)COC(=O)Cc1ccsc1 do in these assays?
HPGD block: -19.6%

Results for CCOC(=O)c1c(-c2ccccc2)cn2ccccc12 ?
HPGD block: inconclusive

What do the screens show for `CCOC(=O)N1CCN(c2ncnc3c2oc2nc(C(C)C)c4c(c23)CCC4)CC1`?
HPGD block: inconclusive

How did Cc1ccc(NC(=O)CSCC(=O)Nc2ncc3c(n2)CC(c2ccco2)CC3=O)cc1 (stereo not given) do in these assays?
HPGD block: 2.4%

How did COCCCNC(=O)CN1C(=O)/C(=C\c2ccc(C)cc2)Sc2ccccc21 do in these assays?
HPGD block: -14.8%

Results for NC(=O)NCCS[C@H]1CCCC[C@@H]1O ?
HPGD block: -0.7%

Results for O=C(O)CCCSc1ccccc1 ?
HPGD block: -11.0%

Results for CCOc1ccc(C2C=C(c3ccc(C)cc3)Nc3nnnn32)cc1 (stereo not given) ?
HPGD block: inconclusive

How did COc1ccc(C(=O)N2CCN(c3ccc(C)c(C)c3)CC2)cc1OC do in these assays?
HPGD block: -5.6%

What do the screens show for `FC(F)(F)c1cccc(NC(=S)Nc2ccc(Cl)cc2Cl)c1`?
HPGD block: -6.7%

Results for O=C1/C(=C/c2ccccc2)CCCc2ccccc21 ?
HPGD block: -0.9%

What do the screens show for `CCC(C)NC(=O)C1=C(C)C(=O)OC12CCC(C)CC2` (stereo not given)?
HPGD block: -4.8%

Results for O=C(N/N=C\CCc1ccccc1)c1ccco1 ?
HPGD block: -9.8%

How did O=C(CN1CCN(C(=O)c2c(F)cccc2F)CC1)Nc1ccccc1F do in these assays?
HPGD block: -1.7%

How did Cc1ccc(-n2ncc3c(NCCCn4ccnc4)ncnc32)c(C)c1 do in these assays?
HPGD block: -11.4%

How did COc1cccc(CNCCc2c[nH]c3ccccc23)c1OCc1ccc(F)cc1 do in these assays?
HPGD block: -17.8%

How did O=C(CN1C(=O)c2ccccc2S1(=O)=O)NCCSc1ccccc1 do in these assays?
HPGD block: -2.8%

What do the screens show for `CCn1c(SCc2ccc([N+](=O)[O-])cc2)nnc1C(C)NC(=O)c1ccccc1Br` (stereo not given)?
HPGD block: 1.6%

How did Cc1ccc(CCNC(=O)CCSCc2ccc(Cl)cc2)cc1 do in these assays?
HPGD block: -4.1%

How did CCCCCCCCN=C1NC(=O)CS1 do in these assays?
HPGD block: -7.0%

What do the screens show for `CCCCNC(=O)c1ccc(S(=O)(=O)c2ccc(Cl)cc2)c(NC(C)=O)c1`?
HPGD block: -5.8%

How did Cc1nc(SCC(=O)NCc2ccco2)[nH]c(=O)c1C do in these assays?
HPGD block: -4.3%

Results for CC12CCC(C(=O)n3c1nc1ccccc13)C2(C)C (stereo not given) ?
HPGD block: -13.7%

Results for CC1(OC(=O)C2CCCC2)C(=O)C=C2C=C(c3ccsc3)N(C3CC3)C=C2C1=O (stereo not given) ?
HPGD block: -3.6%

Results for CCc1cccc(CC)c1NC(=O)COC(=O)C1(c2ccc(Cl)cc2)CCCC1 ?
HPGD block: -10.2%

How did Cc1nn(-c2nnc(C)c(=O)[nH]2)c(C)c1SCC(=O)Nc1ccc(C(C)C)cc1 do in these assays?
HPGD block: -25.5%

Results for COc1ccc(-n2c(Cc3cccn3C)nnc2SCC(=O)Nc2ccc(C(C)=O)cc2)cc1 ?
HPGD block: -21.2%

What do the screens show for `COc1cc(/C=N/Nc2nc3c(c(=O)n(C)c(=O)n3C)n2Cc2ccccc2)ccc1OC(=O)c1ccco1`?
HPGD block: inconclusive

How did Cc1ccc(O)c(N=Nc2ccccc2)n1 do in these assays?
HPGD block: 22.4µM*!

How did CC1CC(C)CN(c2cc3c(cc2[N+](=O)[O-])C(=O)N(c2ccccc2)C3=O)C1 (stereo not given) do in these assays?
HPGD block: -2.6%

How did CCCOc1ccc(C2C(C(=O)c3ccc(C)o3)=C(O)C(=O)N2CCN2CCOCC2)cc1OC (stereo not given) do in these assays?
HPGD block: -10.9%

What do the screens show for `O=S(=O)(c1cccc(C(F)(F)F)c1)N1CCN(C(=S)NC2CC2)CC1`?
HPGD block: -5.0%

Results for O=C(OCCN1CCOCC1)C(c1ccccc1)c1ccccc1 ?
HPGD block: -9.8%

How did Cc1sc2nc(CN3CCOCC3)nc(Cl)c2c1C do in these assays?
HPGD block: 3.8%

How did CC(=C(CCOP(=O)(O)O)SC(=O)c1ccccc1)N(C=O)Cc1cnc(C)nc1N do in these assays?
HPGD block: -9.6%&-4.4%

What do the screens show for `Cc1cc(N2CCOCC2)cc(C)[n+]1[O-]`?
HPGD block: -4.3%

Results for COc1ccc(NC(=O)/C(C#N)=C/c2ccc(OCc3ccccc3F)cc2)cc1 ?
HPGD block: -6.5%

What do the screens show for `Cc1ccc(N(CC(=O)NCCc2ccc(F)cc2)S(=O)(=O)c2ccc(Cl)c([N+](=O)[O-])c2)c(C)c1`?
HPGD block: -13.6%

What do the screens show for `CN(C)/C=N/c1ncc(C(=O)c2ccc(Cl)cc2)s1`?
HPGD block: -16.3%

What do the screens show for `CCN(CCCNC(=O)c1ccc(N2CCCC2=O)cc1)c1cccc(C)c1`?
HPGD block: inconclusive

Results for CCCCn1c2c(c(=O)n(C)c1=O)C(c1ccc(OC)cc1)N1CCCCCC1=N2 (stereo not given) ?
HPGD block: -11.1%

What do the screens show for `CC(C)Nc1nc(-c2ccccc2)nc(-n2ccnc2)n1`?
HPGD block: -5.5%

What do the screens show for `Cc1ccccc1OCC(=O)NC1=NCCS1`?
HPGD block: -7.4%

How did CC(=O)N1CCc2cc(Br)cc(S(=O)(=O)NCCCN3CCCC(C)C3)c21 (stereo not given) do in these assays?
HPGD block: -0.3%

What do the screens show for `O=C(c1cccc(F)c1)N1CCN(c2ccc([N+](=O)[O-])c(N3CCOCC3)c2)CC1`?
HPGD block: -9.6%

Results for CCCS(=O)(=O)n1nc(-c2ccc(C)cc2)cc1N ?
HPGD block: -13.6%

Results for c1ccc(Cc2nn3c(-c4ccncc4)nnc3s2)cc1 ?
HPGD block: 28.2µM*

What do the screens show for `COc1cccc(C2SCC(=O)N2c2ccc(Cl)cc2)c1OC` (stereo not given)?
HPGD block: 0.4%

Results for O=C(c1ccc(S(=O)(=O)N2CCOCC2)cc1)N(Cc1ccco1)Cc1cccs1 ?
HPGD block: -3.4%

Results for CC(C)Oc1ccc(S(=O)(=O)N(C(C)C)C(C)C)cn1 ?
HPGD block: 2.7%

How did O=S(=O)(Cc1ccccc1)N1CCc2ccccc21 do in these assays?
HPGD block: -1.4%

Results for CN(C1CCCCC1)S(=O)(=O)c1ccc(S(=O)(=O)N2CCN(CCC#N)CC2)cc1 ?
HPGD block: -11.0%

What do the screens show for `CC1=C(/C=C/C(C)=C/C=C/C(C)=C/C=C/C=C(C)/C=C/C=C(C)/C=C/C(=O)[C@]2(C)C[C@@H](O)CC2(C)C)C(C)(C)C[C@H](O)C1`?
HPGD block: -24.7%

Results for CCN(CC)CCn1c2ccc(Cl)cc2c2nc(C)sc21 ?
HPGD block: 0.0%

What do the screens show for `CCC(=O)OC1(C#CCOc2ccc(OC)cc2)CCN(C)CC1`?
HPGD block: -12.2%

What do the screens show for `Cc1ccc(NC(=O)CC(=O)NCCN2CCOCC2)cc1`?
HPGD block: -5.6%

How did Clc1ccc(/C=N/Nc2nc(Cl)nc3ccccc23)cc1 do in these assays?
HPGD block: -19.6%

How did COc1ccc(N2CCN(C(=O)CN3CCN(C(c4ccccc4)c4ccccc4)CC3)CC2)cc1 do in these assays?
HPGD block: -3.4%

How did O=C(O)C1CCC[C@@H]2[C@@H]3CC(CN12)[C@@H]1CCCCN1C3 (stereo not given in full) do in these assays?
HPGD block: -2.9%

What do the screens show for `CSCCC(NS(=O)(=O)c1ccc(Cl)cc1)C(=O)OCC(=O)c1c(C)[nH]c2ccccc12` (stereo not given)?
HPGD block: -27.4%

Reprinted at random: 5 compounds from above, in no set order.
Results for CCCS(=O)(=O)n1nc(-c2ccc(C)cc2)cc1N ?
HPGD block: -13.6%

How did O=S(=O)(Cc1ccccc1)N1CCc2ccccc21 do in these assays?
HPGD block: -1.4%

Results for CC(C)Oc1ccc(S(=O)(=O)N(C(C)C)C(C)C)cn1 ?
HPGD block: 2.7%

What do the screens show for `CSCCC(NS(=O)(=O)c1ccc(Cl)cc1)C(=O)OCC(=O)c1c(C)[nH]c2ccccc12` (stereo not given)?
HPGD block: -27.4%

What do the screens show for `CCC(=O)OC1(C#CCOc2ccc(OC)cc2)CCN(C)CC1`?
HPGD block: -12.2%

Following part.
Results for C=CCn1c(CNC(=O)c2cccs2)nnc1SCC(=O)Nc1ccc(C(=O)O)cc1 ?
HPGD block: -10.6%

What do the screens show for `Cc1onc(-c2c(F)cccc2Cl)c1C(=O)Nc1sc2c(c1C(N)=O)CCC2`?
HPGD block: inconclusive

How did Cc1ccccc1-c1nsc(SCC(=O)c2ccc(Cl)cc2)n1 do in these assays?
HPGD block: -20.8%

Results for COCCNC(=O)CCn1nc(-c2ccc(Cl)cc2)ccc1=O ?
HPGD block: -8.4%

Results for Cc1c(NC(=O)c2cc3c(s2)-c2ccccc2OC3)cccc1[N+](=O)[O-] ?
HPGD block: inconclusive

What do the screens show for `Cc1cccc(C)c1NC(=O)N1CCC(N2CCCCC2)CC1`?
HPGD block: -5.2%

How did CC(=O)C1=C(O)C(=O)N(Cc2ccccc2)C1c1cccs1 (stereo not given) do in these assays?
HPGD block: -4.7%

Results for O=c1c2[nH]c3ccccc3c2ncn1C1CCCCC1 ?
HPGD block: -24.1%

Results for O=C(O)c1cn(-c2ccccc2)nc1C(=O)O ?
HPGD block: -12.8%

Results for Cc1cc(C)nc(NC(=O)CSc2nc3ccccc3s2)n1 ?
HPGD block: -12.6%

What do the screens show for `CCOC(=O)C1=C(c2ccccc2)N=C2SCC(=O)N2C1c1ccc(OC)c(OC)c1` (stereo not given)?
HPGD block: -14.5%

Results for O=C1[C@@H]2[C@H](C(=O)N1O)[C@H]1C=C[C@@H]2C1 ?
HPGD block: -9.2%

What do the screens show for `Cc1ccc(OC(=O)CCC(=O)OCCCC(F)(F)C(F)(F)F)cc1`?
HPGD block: -15.3%

How did O=C1NC2(CCCCC2)NN1c1ccccc1 do in these assays?
HPGD block: -7.0%

What do the screens show for `CCOc1ccc(OCC)c(NC(=O)CSc2nc3c(c(=O)n(C)c(=O)n3C)n2CC)c1`?
HPGD block: -4.9%

Results for Oc1cc2c(cc1O)[C@@H](c1ccccc1)CNCC2 ?
HPGD block: 20µM*

How did O=C(N/N=C/c1cccs1)c1c[nH]c2ccccc12 do in these assays?
HPGD block: -8.5%

What do the screens show for `COc1ccc(N2CCN(c3nc4c(c(=O)[nH]c(=O)n4C)n3Cc3cccc(C)c3)CC2)cc1`?
HPGD block: inconclusive

What do the screens show for `O=C(NS(=O)(=O)Oc1cccc(Cl)c1Cl)OC[C@@H]1CCCN2CCCCC12` (stereo not given in full)?
HPGD block: -7.5%

Results for COc1ccc(OC)c(NC(=O)CSc2nc3ccccc3cc2Cc2ccccc2)c1 ?
HPGD block: -15.4%

How did Cc1ccc(S(=O)(=O)N2CCCCCC2)cc1[N+](=O)[O-] do in these assays?
HPGD block: -8.2%

How did COc1ccc(CCNC(=O)CCS(=O)(=O)c2cccc3nsnc23)cc1OC do in these assays?
HPGD block: -3.8%

Results for c1ccc2c(c1)CN1CCCC1=N2 ?
HPGD block: -19.1%&-15.1%
